Screening results from PubChem BioAssay.
GIV Gai3 FP: inhibitors of GIV peptide binding to Galpha-i3, primary screen, biochemical, fluorescence polarization, FITC-GIV GBA peptide, rat Galphai3 | 90 min; stronger effect = lower value; scaled: aluminum fluoride 0%, vehicle 100% | percent of control (FP), % (no concentration beside the values) | hit rate 0.42% among 210,000 | AID 1224905, 2016;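 active = replicate mean at 85% of control or lower, very high polarization wells dropped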;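 note: wells of about 15 µL received 100 nL stock; the first replicate is given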
Target sequence (P08753 whole entry, looked up): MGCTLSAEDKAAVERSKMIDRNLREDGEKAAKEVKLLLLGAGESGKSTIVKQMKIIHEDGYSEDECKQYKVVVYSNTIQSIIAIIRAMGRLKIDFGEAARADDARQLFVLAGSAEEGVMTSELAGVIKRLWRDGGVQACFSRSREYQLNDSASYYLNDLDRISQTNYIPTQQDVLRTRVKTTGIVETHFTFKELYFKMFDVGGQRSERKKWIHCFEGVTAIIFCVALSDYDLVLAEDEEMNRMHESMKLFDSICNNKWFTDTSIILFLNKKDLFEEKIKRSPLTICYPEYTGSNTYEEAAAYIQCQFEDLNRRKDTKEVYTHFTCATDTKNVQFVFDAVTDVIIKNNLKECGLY
Sa growth inh: S. aureus growth inhibition at 42 and 30 °C, primary screen, LtaS inhibitor project, RN4220, two temperatures; OD600, 20 h, 42 °C; stronger effect = lower value; relative growth, % (no concentration beside the values); hit rate 0.53% among 170,000;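 active = growth at 42 °C up to 50% and 20 or more points under that at 30 °C, or under 10% at both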;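 note: 300 nL library stock went into each well; scaled to the means of positive and negative controls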
HCMV UL50-53 inh: inhibitors of HCMV UL50-UL53 interaction, biochemical, HTRF; HCMV UL50-UL53 nuclear egress complex (human cytomegalovirus); normalized percent inhibition; inhibition, % (no concentration beside the values); hit rate 0.15% among 190,000; AID 1918969, 2023;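 active = both replicates at 50% or more, plus weaker picks with an unusually low signal ratio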;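 note: stock transfer was 100 nL into about 20 µL; 0% = negative control wells and 100% = wells with untagged competitor protein; inactives centre near -12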
Sa growth inh second temp: further read-out of Sa growth inh, marked with its call; relative growth, %; measured here: growth at 30 °C;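 optical density after 20 h as mean of two plates; 100% = untreated growth and lower means inhibition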
Active calls of the source: *; · = no result given; & = joins results of further samples.

SMILES | GIV Gai3 FP | Sa growth inh | Sa growth inh second temp | HCMV UL50-53 inh
COc1ccc(CNC(=O)c2ccc(CSc3nc4ccncc4n3Cc3ccccc3F)cc2)cc1 | 98 | 111 | 104 | -8
CCCCN(CC)C(=O)Cn1ncc2c([nH]c3ccc(C)cc32)c1=O | 105 | 117 | 101 | -1
Cc1cccc(NC(=O)CN2C(=O)CCc3ccccc32)c1C | 115 | 85 | 102 | ·
O=c1cnc2ccccc2[nH]1 | 102 | 81 | 76 | -84
CCCNS(=O)(=O)c1ccc(NC(=O)COc2ccccc2)cc1 | 108 | 106 | 99 | 16
CCS/C(=C(\C#N)C(N)=O)c1ccc(-c2ccccc2)[nH]1 | 145 | 89 | 86 | -71
CC(C)C(NC(N)=O)C(=O)O (stereo not given) | · | 86 | 94 | -11
O=C(NCc1cccc(Br)c1)c1cnn(-c2ccccc2)c1-n1cccc1 | 105 | · | · | -17
CCn1c(=O)n(-c2ccccc2)c(=O)c2c3c(sc21)CN(C(C)=O)CC3 | 102 | 74 | 83 | ·
COCCNC(=O)c1nnc(Cc2ccc(OC)c(OC)c2)o1 | 96 | 95 | 91 | -14
CCOc1ccc(NC(=O)CSC2=Nc3ccccc3C3=NC(Cc4ccccc4)C(=O)N23)cc1 (stereo not given) | 97 | 118 | 76 | ·
O=C(CSc1nc2scc(-c3ccccc3)c2c(=O)n1-c1ccccc1)c1ccco1 | · | 99 | 90 | 0
O=C(NC1CCCc2ccccc21)C1CCCN(c2ccc(-c3ccccc3)nn2)C1 (stereo not given) | 104 | · | · | 2
Cc1ccc(C(C)C)c(OCC(=O)Nc2nc3c(s2)CCCC3)c1 | 103 | 108 | 91 | -5
COc1ccc2oc(-c3ccc(OC)c(OC)c3)cc(=O)c2c1 | 99 | 109 | 89 | -12
Cc1ccc(-c2cc(NC(=O)CCC(=O)O)c(=O)[nH]n2)cc1 | 100 | · | · | -83
Cc1nnc2c3ccccc3nc(Nc3ccc4c(c3)OCCO4)n12 | 104 | 94 | 96 | -7
NC(=O)NCCc1cccs1 | · | 104 | 95 | -2
CCn1c(C(=O)NCc2ccc(Cl)cc2)cc2oc3ccccc3c21 | 107 | 90 | 84 | -7
CC(=O)N1CCc2cc3cccc(C)c3nc21 | 101 | · | · | -12
Cc1ccc(OCc2n[nH]c(=S)n2C2CCCCC2)c2c1CCC2 | 107 | 30 | 29 | 13
COC(=O)c1sc2c(c1N(C(C)=O)C(C)=O)CSc1ccc(Cl)cc1-2 | 98 | 102 | 106 | 8
COC(=O)c1sccc1NC(=O)NCc1cccn1Cc1ccc(Cl)cc1 | 96 | · | · | -22
CS(=O)(=O)N(c1ccccc1)C1CSC1 | 100 | 94 | 76 | -29
CCn1c(N)c(-c2csc(C)n2)c(=O)n(CC(=O)NCCC2=CCCCC2)c1=O | · | 94 | 95 | 16
Cc1ccc2cnn(CCCC(=O)NCCc3ccccc3)c2c1 | 109 | · | · | -18
Cn1cc(-c2nc(-c3ccc4c(c3)OCO4)no2)c(=O)c2cc(F)c(N3CCOCC3)cc21 | 102 | · | · | -23
COc1ccc(CCN=C2SCCN2C(=O)COc2ccccc2C#N)cc1 | · | 101 | 95 | -26
O=C(Cn1ccc2cc(S(=O)(=O)N3CCCC3)ccc21)NCCc1ccccc1 | 102 | 95 | 86 | -24
NNC(=O)c1ccc(CS(=O)(=O)c2ccccc2)o1 | · | 98 | 98 | 5
COc1cccc(/C=C/c2nc(C#N)c(N3CCCCCC3)o2)c1 | 103 | 112 | 91 | -16
N#CC(C#N)(Cc1ccccc1)Cc1ccccc1 | 102 | 95 | 86 | -35
O=C(Nc1nc2c(cc3c4c(cccc42)CC3)s1)c1ccc(S(=O)(=O)N2CCc3ccccc32)cc1 | 105 | · | · | -22
COc1ccc(C2=CC(c3ccc(Br)cc3)n3ncc(C(=O)Nc4ccccc4)c3N2)cc1 (stereo not given) | 111 | · | · | -10
COc1ccccc1OCCCCn1c(CN2CCCCC2)nc2ccccc21 | 103 | · | · | -13
Cc1nc(CNS(=O)(=O)c2cccs2)cs1 | 99 | 99 | 87 | ·
CCN(CCCNC(=O)Cn1ncc2c([nH]c3ccccc32)c1=O)c1cccc(C)c1 | 104 | 107 | 84 | ·
NC(=O)c1cc(-c2ccccc2)sc1N | · | 96 | 66 | -43
CC(C)=NNC(=O)Cc1cn2ccsc2n1 | · | 90 | 95 | -33
Cc1ccc(CNC(=O)C(=O)NCC(c2ccco2)S(=O)(=O)c2cccs2)cc1 (stereo not given) | 95 | 121 | 78 | ·
COc1cc(-c2noc(-c3ccccc3)n2)ccc1OCC(=O)Nc1cccc(C)c1 | 106 | · | · | -18
CN1CCN(c2ccc3cc(S(=O)(=O)N4CCOCC4)ccc3n2)CC1 | 101 | · | · | -11
NC(N)=NC(N)=Nc1cccc(C(=O)O)c1 | · | 123 | 109 | 13
O=C1c2ccccc2C(=O)N1CSc1nc2ccccc2[nH]1 | 100 | 98 | 89 | -21
Nc1ncncc1C(=O)O | · | 88 | 96 | -1
N#CCCSc1nsc(N)n1 | 102 | 89 | 83 | -8
COC(=O)C1=CN(Cc2ccc(Cl)cc2)C=C(C(=O)OC)C1c1cccc(Cl)c1 | 97 | 93 | 92 | ·
NC1=NCC(O)=C1c1nc2ccccc2s1 | · | 104 | 87 | -20
CCN1CCN(c2cc3c(cc2F)c(=O)c(S(=O)(=O)c2ccc(OC)cc2)cn3CC)CC1 | 104 | 106 | 90 | ·
CCN(CC)C(=O)c1cc(-c2ccc(Cl)c(Cl)c2)on1 | 104 | 104 | 87 | ·
(listing goes on)
SMILES | GIV Gai3 FP | Sa growth inh | Sa growth inh second temp | HCMV UL50-53 inh
COc1ccc2c(CNCc3ccc(C)o3)c(C(=O)O)n(Cc3ccccc3C)c2c1 | 109 | 138 | 109 | ·
CC(C)NC(=O)c1cnn(-c2cccc(F)c2)c1-n1cccc1 | 97 | 89 | 94 | -2
c1ccc(-c2nc3cnc(N4CCN(c5ccccc5)CC4)nc3o2)cc1 | 101 | · | · | -11
CC(Oc1ccccc1)c1nc(Cn2c(=O)oc3ccccc32)no1 (stereo not given) | 109 | · | · | -16
N=c1n(CCO)c2ccccc2n1CCOc1ccccc1 | 99 | 94 | 70 | -9
Cc1ccc(-c2[nH]nc3nc(-c4ccc(O)c(O)c4)cc(C(=O)O)c23)cc1 | 102 | · | · | -52
Cc1ccc(-n2ncc(C(=O)Nc3c(Cl)cccc3Cl)c2C2CCNCC2)cc1 | 105 | 106 | 104 | ·
COc1ccc2oc(C)c(C(=O)Nc3cccc(Cl)c3)c2c1 | 112 | · | · | 7
Cc1c(Br)c([N+](=O)[O-])nn1CC(=O)Nn1c(-c2cccs2)nc2ccccc2c1=O | 108 | · | · | -23
O=C(Cc1n[nH]c(=O)c2ccccc12)NCCN1C(=O)S/C(=C\c2ccc(F)cc2)C1=O | · | 72 | 83 | -75
COc1ccc(NC(=O)Cn2nc(N3CCN(c4ccc(F)cc4)CC3)ccc2=O)c(OC)c1 | 111 | · | · | -28
Cc1ccc(-c2nc(CS(=O)CC(=O)NC3CC3)c(C)o2)cc1 (stereo not given) | 106 | 72 | 99 | 4
CCOC(=O)c1c(-c2ccco2)csc1NC(=O)CSc1nnc2sc3ccccc3n12 | 109 | · | · | -10
NC(=O)Cc1ccc(C(=O)CSc2nnc(-c3cccs3)n2C2CC2)s1 | · | 75 | 53 | -67
CCOC(=O)c1c(-c2ccccc2)oc2ccc(N(C(C)=O)S(=O)(=O)c3cc(C)ccc3C)cc12 | 103 | 91 | 95 | -9
CCN(CC)C(=O)c1sc(NC(=O)c2cc(-c3ccc(Cl)cc3)nc3ccccc23)c(C(=O)OC(C)C)c1C | 103 | · | · | -2
C=CCc1c(C)[nH]c(=S)[nH]c1=S | 104 | 96 | 95 | -18
CN(C)c1nc(N(C)C)nc(N(C#N)CCOc2ccccc2)n1 | 106 | · | · | 1
O=S(=O)(c1ccc(OC(F)(F)F)cc1)N1CCC(c2nnnn2-c2ccc(F)cc2)CC1 | 97 | 72 | 90 | 5
Cc1cccc(C)c1N(CC(O)Cn1c2ccccc2c2ccccc21)S(C)(=O)=O (stereo not given) | 103 | 112 | 94 | -1
CC(C)(C)C1CCC(OC(=O)c2ccncc2)CC1 (stereo not given) | · | 110 | 102 | 21
COc1ccc(Cl)cc1N(CC(=O)Nc1ccccc1C(=O)N1CCOCC1)S(C)(=O)=O | 102 | 100 | 90 | -4
CC(C)(C)OC(=O)N1CCC(c2c(C(=O)NCc3ccccn3)cnn2-c2ccc(F)cc2)CC1 | 115 | 112 | 109 | ·
CCOC(=O)C1=C(CC)Nc2ccccc2N=C1N | · | 97 | 91 | -16
O=C(Nc1ccc2nc(N3CCOCC3)sc2c1)C1CCCN1C(=O)c1cccs1 (stereo not given) | · | 101 | 88 | -41
CCOc1ccc(C(=O)NC2CCN(CC(=O)NCc3ccccc3)CC2)cc1 | 99 | 115 | 103 | 18
Cn1nc(C(=O)NCC2CCCO2)c2ccccc2c1=O (stereo not given) | 105 | 82 | 88 | -12
O=C(N/N=C/C=C/c1ccccc1)c1n[nH]c2c1CCC2 | 105 | 99 | 99 | 1
COC(=O)C1=C(C)N(c2ccccc2)/C(=C/c2ccc(OC)cc2)C1=O | 108 | 93 | 95 | 1
COc1ccc(OCC(=O)Sc2ccc(Cl)cc2)cc1 | · | 38 | 38 | -16
COc1ccc(S(=O)(=O)N2CCc3cc4ccccc4nc32)c(OC)c1 | 109 | · | · | -6
COc1cccc(CNCC(=O)N2C(C)CCCC2C)c1 (stereo not given) | 104 | 102 | 88 | -11
COc1ccc(S(=O)(=O)NCC(c2ccco2)S(=O)(=O)c2cccs2)cc1C (stereo not given) | 99 | 124 | 87 | ·
Cc1cc(C)c(NC(=O)Cn2c3ccccc3c3nc4ccccc4nc32)c(C)c1 | 106 | · | · | 7
CCOc1ccc(CNCc2c(C(=O)O)n(Cc3ccc(OC)cc3)c3ccccc23)cc1 | 123 | 123 | 81 | ·
COc1cc(C2C3=C(CCCC3=O)OC3=C2C(=O)CCC3)cc(OC)c1OC | 100 | · | · | -23
COc1ccc(N2C(=O)CC(C(=O)NC3CCCCC3)C2c2ccc(F)cc2)cc1 (stereo not given) | 105 | 89 | 83 | ·
Cc1nc2ccccc2c2oc(C(=O)NCCC3=CCCCC3)cc12 | 100&101 | 94 | 57 | -5&-20
Nc1c(C(=O)c2ccco2)sc2nsc(SCCN3CCOCC3)c12 | 138 | 85 | 78 | 25
Cc1ccc(S(=O)(=O)Nc2ccc(C(O)(C(F)(F)F)C(F)(F)F)cc2)cc1 | · | 129 | 77 | -30

Sorted by the number under GIV Gai3 FP (falling): 3 of the compounds above.
Molecule	GIV Gai3 FP
CCS/C(=C(\C#N)C(N)=O)c1ccc(-c2ccccc2)[nH]1	145
COc1ccccc1OCCCCn1c(CN2CCCCC2)nc2ccccc21	103
Cc1ccc(-c2cc(NC(=O)CCC(=O)O)c(=O)[nH]n2)cc1	100

Pulled one by one from the list above, 7 records:
SMILES | GIV Gai3 FP | Sa growth inh | Sa growth inh second temp | HCMV UL50-53 inh
COc1ccc(S(=O)(=O)N2CCc3cc4ccccc4nc32)c(OC)c1 | 109 | · | · | -6
Cc1ccc(S(=O)(=O)Nc2ccc(C(O)(C(F)(F)F)C(F)(F)F)cc2)cc1 | · | 129 | 77 | -30
Cc1cc(C)c(NC(=O)Cn2c3ccccc3c3nc4ccccc4nc32)c(C)c1 | 106 | · | · | 7
COc1cccc(CNCC(=O)N2C(C)CCCC2C)c1 (stereo not given) | 104 | 102 | 88 | -11
CCOc1ccc(CNCc2c(C(=O)O)n(Cc3ccc(OC)cc3)c3ccccc23)cc1 | 123 | 123 | 81 | ·
COc1cc(C2C3=C(CCCC3=O)OC3=C2C(=O)CCC3)cc(OC)c1OC | 100 | · | · | -23
COc1ccc(N2C(=O)CC(C(=O)NC3CCCCC3)C2c2ccc(F)cc2)cc1 (stereo not given) | 105 | 89 | 83 | ·

(cont.)
SMILES | GIV Gai3 FP | Sa growth inh | Sa growth inh second temp | HCMV UL50-53 inh
CCOC(=O)c1c(NC(=O)c2ccc(C)c([N+](=O)[O-])c2)sc(C(=O)Nc2cccc(Cl)c2C)c1C | 104 | · | · | -11
O=C(CN1C(=O)CSc2ccc(C(=O)N3CCCC3)cc21)NC1CCCCC1 | 113 | · | · | -6
O=[N+]([O-])c1ccc(N2N=C(c3ccccc3)CC2c2ccc(O)cc2)cc1 (stereo not given) | 105 | · | · | -3
CCOC(=O)N1CCc2c(sc3c2c(=O)n(-c2ccc(Cl)cc2)c(=O)n3Cc2cccc(C)c2)C1 | 107 | 103 | 88 | 7
c1ccc(C2=N[C@H](c3ccccc3)[C@H](c3ccccc3)N2)cc1 | 101 | 99 | 88 | -48
O=C(CN1C(=O)CCCc2ccccc21)NC1CCCCC1 | 104 | · | · | -6
Cc1ccc(NC(=O)CC2SC(=Nc3ccc(C)cc3C)N(CCN3CCOCC3)C2=O)cc1 (stereo not given) | · | 123 | 95 | -11
CCOc1ccc(NC(=O)CSc2nccn2Cc2ccco2)cc1 | 104 | 126 | 93 | ·
CC(C)CC(=O)N1C(=O)c2cccc3c(S(=O)(=O)N(C)C)ccc1c23 | 105 | 109 | 89 | -34
O=C(O)C1CCCN1c1nc(-c2ccccc2)c2cc([N+](=O)[O-])ccc2n1 (stereo not given) | 96 | · | · | -61
O=C(O)CC1(CC(=O)Nc2ccc3ccccc3n2)CCCCC1 | 103 | 105 | 90 | -3
COc1ccc2[nH]c(C)c(CCN(Cc3cccs3)C(=S)Nc3cccc(C)c3)c2c1 | 100 | 127 | 98 | ·
